StopGo reporter: lowers the luciferase signal of an FMDV 2A StopGo reporter. human cells with a luciferase reporter of 2A StopGo recoding; control for the full effect not named in the record. Potency, µM (highest dose often 57.9 µM), inactives show at the top dose signal change, negative = less light. 1.2% of 410,000 active; active = well fitted falling curve with a large enough effect; inconclusive = small, poorly fitted or top-dose-only effect; inactive = no such curve, though single readings can be large or run the other way; tested in HEK293T cells; further: on the % scale 0 is the no-effect control and ±100 the full control effect; nearly all actives have a fitted effect of over 45% in size; luciferase light after 4 h
Lassa entry inh: blocks Lassa virus binding to or entry into cells. Lassa virus pseudotype entry inhibition, cell reporter; control for the full effect not named in the record. Potency, µM (series often up to 37.9 µM), without a hit: top-dose activity change, negative = inhibition, most hits filed as inhibitors. 1.2% of 300,000 active; active means well fitted inhibition curve with a large enough effect; inconclusive means small, poorly fitted or top-dose-only effect, or effect the other way; inactive means flat fitted curve, though single readings scatter; tested in HEK293 cells; further: on the % scale 0 is the no-effect control and ±100 the full control effect; nearly all actives have a fitted effect of over 50% in size; luciferase read-out
Cruzain inh Det: cruzain (T. cruzi) inhibition with detergent. P25779. purified cruzain, Z-FR-AMC fluorescence, 0.01% Triton. Potency, µM, for the others: max response, negative = inhibition, actives largely listed as inhibitors. 0.43% of 200,000 active;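 further: plate controls were neutral wells for no effect and buffer without enzyme for full effect; nearly all actives have a fitted effect of over 40% in size; top concentration of the series not given in the record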
Target sequence (P25779 123-467 limits assumed): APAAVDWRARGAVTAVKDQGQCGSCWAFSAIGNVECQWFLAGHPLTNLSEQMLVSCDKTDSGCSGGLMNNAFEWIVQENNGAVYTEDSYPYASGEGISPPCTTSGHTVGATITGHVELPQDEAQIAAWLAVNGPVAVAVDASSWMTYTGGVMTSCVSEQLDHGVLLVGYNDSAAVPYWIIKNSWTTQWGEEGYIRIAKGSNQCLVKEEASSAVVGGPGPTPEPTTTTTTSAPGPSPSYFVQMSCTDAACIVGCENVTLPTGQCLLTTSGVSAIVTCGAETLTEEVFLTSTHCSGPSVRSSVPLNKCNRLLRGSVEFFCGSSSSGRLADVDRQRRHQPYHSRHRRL
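Cruzain (1.5 nM) preincubated 15 min at RT with compound in 100 mM sodium acetate pH 5.5, 5 mM DTT, 0.01% Triton X-100. Reaction started with 2 uM Z-FR-AMC; AMC fluorescence (ex 360/em 450 nm) change over 60 s gave rate.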
SARS PLP yeast: blocks SARS-CoV papain-like protease in a yeast assay; S. cerevisiae expressing SARS-CoV PLpro, growth rescue; control for the full effect not named in the record; Potency, µM (doses to about 32.9 µM), without a hit: top-dose activity, positive = growth rescue; 0.19% of 330,000 active; active means well fitted rising curve with a large enough effect; inconclusive means small, poorly fitted or top-dose-only effect; inactive means no such curve, though single readings can be large or run the other way; further: 0% is about no effect; nearly all actives have a fitted effect of over 55% in size; growth read by luminescence after 48 h
MARV entry inh: blocks Marburg virus binding to or entry into cells; Marburg virus pseudotyped entry inhibition, cell reporter; control for the full effect not named in the record; about a third of the inactives were read at about 46 µM; Potency, µM (doses to about 37.8 µM), for inactives: top-dose activity change, negative = inhibition, hits mostly inhibitors; 1.8% of 300,000 active; active = well fitted inhibition curve with a large enough effect; inconclusive = small, poorly fitted or top-dose-only effect, or effect the other way; inactive = flat fitted curve, though single readings scatter; tested in HEK293 cells; about a fifth of its hits are not listed in these tables; further: on the % scale 0 is the no-effect control and ±100 the full control effect; luciferase read-out
RE007 growth inh: less growth of the S. pombe RE007 Vpr strain; S. pombe RE007 Vpr strain, BacTiter-Glo ATP luminescence, 24 h; control for the full effect not named in the record; Potency, µM (series often up to 92.2 µM), for the others: top-dose activity change, negative = less growth; 0.21% of 360,000 active; active = well fitted falling curve with a large enough effect; inconclusive = small, poorly fitted or top-dose-only effect; inactive = no such curve, though single readings can be large or run the other way;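 further: on the % scale 0 is the no-effect control and ±100 the full control effect; nearly all actives have a fitted effect of over 50% in size; the assay follows cell death caused by Vpr and the record does not say whether a fall means rescue or toxicity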
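Fission yeast RE007 carrying one integrated HIV-1 vpr copy, seeded at OD 0.01 in PMG+AL medium with 23 nL pinned compound. Grown 24 h at 30 degrees; viability read by BacTiter-Glo luminescence after 5 min.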
NS1 function inh: inhibitors of influenza NS1 protein function. 0.4% of 270,000 active. Potency, µM (highest dose often 46.1 µM), for the others: at the highest dose activity, positive = more growth. S. cerevisiae slowed by influenza A NS1, growth recovery by OD600; active means well fitted rising curve with a large enough effect; inconclusive means small, poorly fitted or top-dose-only effect; inactive means no such curve, though single readings can be large or run the other way; further: nearly all actives have a fitted effect of over 50% in size
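Compounds were scored for reversing the slow growth caused by influenza A NS1 in S. cerevisiae, measured by optical density at 600 nm. Assay medium contained 2% galactose at pH 6.0; NS1-free yeast of the same strain were the positive control.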
Cruzain noTriton: blocks cruzain activity in detergent-free assay. AID 1476. Potency, µM, for the others: max response, negative = inhibition, hits mostly inhibitors. P25779. purified cruzain, Z-FR-AMC fluorescence, no detergent. 2.3% of 200,000 active;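 further: plate controls were enzyme without inhibitor for no effect and buffer without enzyme for full effect; nearly all actives have a fitted effect of over 40% in size; top concentration of the series not given in the record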
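Purified cruzain at 1.5 nM, pre-incubated 15 min with compound at room temperature in 100 mM sodium acetate pH 5.5, 5 mM DTT, 0.00005% Triton X-100. Reaction started with 2 uM Z-FR-AMC; AMC fluorescence increase over 60 s gives rate.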
Active calls of the source: *; ? = inconclusive; . = no result given; [ ] = another dose, or the depositor's remark. Unless noted, the call rests on the fitted dose curve; in most records, active means well fitted curve in the direction sought with a large enough effect; inconclusive means small, poorly fitted or top-dose-only effect, or another doubt; inactive means no such curve, though single readings can be large; an effect the other way counts as inactive or inconclusive. Potency means the concentration at half of the fitted maximal effect. Compounds were not picked by outcome; overall some 4.7% were active at least once.

nr	Compound	SARS PLP yeast	Lassa entry inh	StopGo reporter	NS1 function inh	Cruzain inh Det	Cruzain noTriton	MARV entry inh	RE007 growth inh
1	COC(=O)c1[nH]c2ccc(F)cc2c1NC(=O)C1=COCCO1	1%	-5%	-20%	-52%	1.5%	-1%	0%	10%
2	O=C(COC(=O)c1ccc2[nH]c3c(c2c1)CCCC3)Nc1ccccc1Cl	1%	-16%	-22%	3%	.	.	-11%[46.1 µM]	-6%
3	CCOc1ccc2[nH]c(=O)c(CN(CCN3CCCC3)C(=S)Nc3ccccc3OCC)cc2c1	0%	.	-16%	3%	.	.	.	-15%
4	CCOc1c(Cl)cnn(-c2ccc(C)cc2)c1=O	9%	12%	9%	1%	-2.6%	-3%	9%	-4%
5	CCN(CC)S(=O)(=O)c1ccc2c(c1)N(CC(=O)NCc1ccccc1)C(=O)CS2	.	.	2%	.	-0.6%	2%	0%[46.1 µM]	.
6	CCOC(=O)N1CCN(C(=O)C(=O)Nc2sc3c(c2C(=O)O)CC(C)(C)OC3)CC1	-7%	.	18%	20%	.	.	.	0%
7	Cc1nn(CC(N)=O)c(=O)c2ccccc12	-4%	-3%	-11%	-5%	1.1%	-4%	13%	12%
8	Cc1nn(C(C)C(=O)NCC2CCCO2)c(=O)c2c1sc1ccccc12 (centres undefined)	-2%	-1%[46.1 µM]	-10%	3%	.	.	-4%[46.1 µM]	5%
9	O=C(/C=C/c1ccccc1)OCC(=O)c1ccc[nH]1	-1%	21%	26%	.	.	.	?	-11%
10	CN(C)S(=O)(=O)c1ccc(C(=O)NCc2nnc(SCC(=O)c3ccccc3)o2)cc1	0%	23%	-25%	-3%	.	.	11%	-5%
11	Cc1c(C(=O)NCCc2ccc(Cl)cc2)cccc1-n1cnc2cccnc21	.	3%[46.1 µM]	?	.	-3.6%	0%	.	.
12	Cc1nc(Cl)sc1C(=O)Nc1cc(F)cc(F)c1	-14%	?	-18%	-24%	.	.	?	3%
13	CN(C)S(=O)(=O)c1ccc(C(=O)OCC2COC(C)(C)O2)cc1 (centres undefined)	2%	-1%	-14%	-4%	.	.	?	16%
14	Cc1ccccc1-c1nc(CS(=O)(=O)CC(=O)Nc2cc(Cl)cc(Cl)c2)c(C)o1	.	6%[46.1 µM]	-29%	.	0.4%	-28%	-7%[46.1 µM]	.
15	COc1ccccc1NC(=O)CN1C(=O)C(C)Oc2ccccc21 (centres undefined)	8%	1%	-23%	-18%	2.9%	-1%	13%	7%
16	COc1ccccc1NS(=O)(=O)c1ccc(O)c(C(=O)OCc2cccc([N+](=O)[O-])c2)c1	-2%	-5%	5%	.	.	.	-17%	-15%
17	Cc1ccc(S(=O)(=O)NCC(=O)N(CC2CCCO2)C(C(=O)NC2CCCC2)C(C)C)cc1 (centres undefined)	8%	3%	12%	-5%	.	.	-24%[46.1 µM]	?
18	Clc1ccc(-c2csc(N/N=C/c3ccco3)n2)cc1	-2%	?	-10%	17%	.	.	?	3%
19	COc1ccc(C(c2nnnn2C(C)C)N2CCN(C(=O)c3ccco3)CC2)cc1 (centres undefined)	-2%	-7%	5%	-10%	.	.	?	1%
20	COc1ccc(-c2cn3cccnc3n2)cc1NC(=O)C1CC1	-3%	0%	18%	0%	-0.3%	5%	9%	6%
21	CCN(CCCNC(=O)c1cc(Nc2ccc(OC)cc2OC)nc2ccccc12)c1cccc(C)c1	.	1%[46.1 µM]	-20%	.	-5.5%	?	?	.
22	O=C(CCCCCn1nnc2ccccc2c1=O)Nc1ccccc1F	1%	-10%	-5%	5%	.	.	4%[46.1 µM]	8%
23	COc1ccc(-c2cc(C(F)(F)F)n3ncc(C(=O)NCC4CCCO4)c3n2)cc1OC (centres undefined)	2%	-2%	-9%	8%	-0.6%	4%	-4%	6%
24	CCOC(=O)CSc1ncc(-c2ccccc2)nn1	12%	4%	18%	-61%	-4.5%	-10%	11%	10%
25	O=C(Nc1cc2ccc(O)cc2oc1=O)c1ccc(F)cc1	.	?	1%	.	-1.1%	0%	.	.

Further records
nr	Compound	SARS PLP yeast	Lassa entry inh	StopGo reporter	NS1 function inh	Cruzain inh Det	Cruzain noTriton	MARV entry inh	RE007 growth inh
26	Cc1cc(N2C(=O)C3CCCN3C2c2ccc(Cl)c(Cl)c2)no1 (centres undefined)	4%	-1%	-4%	-36%	-5.1%	1%	15%	-1%
27	CCCNS(=O)(=O)c1ccc(CCC(=O)N2CCN(CC)CC2)cc1	0%	-9%	.	-9%	-0.7%	-3%	-4%	13%
28	CCOc1ccccc1NC(=O)C1COc2ccccc2O1 (centres undefined)	-7%	.	-14%	-60%	.	.	.	-18%
29	NC(=O)c1nsc(C(=O)N(CC(=O)NCc2ccccc2)c2cccc(F)c2)c1N	2%	?	-17%	7%	.	.	-15%[46.1 µM]	0%
30	Cc1cc(C)cc(OCC(=O)Nc2ccc(CN3CCCCC3)cc2)c1	2%	-2%	-12%	0%	.	.	?	6%
31	CC(C)(c1ccccc1)c1ccc(OCCN2CCOCC2)cc1	2%	.	-28%	-5%	.	.	.	2%
32	CC(NC(=O)c1ccccc1Cl)c1nnc(SCC(=O)Nc2ccc(C(=O)O)cc2)n1C (centres undefined)	13%	15%	-1%	9%	0.5%	3%	16%	7%
33	COc1ccc2c(C)c(CCC(=O)NCCc3ccc(Cl)cc3)c(=O)oc2c1	.	-24%[46.1 µM]	-24%	.	-6.7%	19%	-4%[46.1 µM]	.
34	Cc1[nH]c(-c2ccccn2)nc(=S)c1Cl	-6%	-8%	-21%	-102%	.	.	15%[14.2 µM]	-9%
35	CC1=C(C(=O)OC(C)C)C(c2cncc(-c3ccc(F)cc3)c2)C(C#N)=C(N)O1 (centres undefined)	-7%	-3%	0%	-2%	-16%	-2%	?	1%
36	COc1ccc(CCNS(=O)(=O)c2ccc(C(=O)NCc3ccco3)cc2)cc1OC	1%	-19%	.	-4%	5.8%	4%	-23%	0%
37	O=C(Nc1ccc(-c2nc3cccnc3s2)cc1)C1CCCO1 (centres undefined)	-21%	?	-38%	-23%	0.8%	0%	2.6µM*	-17%
38	CCCCC(=O)NC(=S)NNC(=O)CCc1ccccc1	2%	.	6%	-5%	.	.	.	8%
39	C=C1c2nc3ccccc3n2C=C(c2ccc(C)cc2)N1c1ccccc1	.	-15%	-23%	.	.	.	-32%	?
40	COc1ccccc1N1CCN(c2nc(-c3ccccc3)cc(C(F)(F)F)n2)CC1	-2%	7%	24%	-7%	1.8%	-6%	1%	12%
41	CCS(=O)(=O)N1CCC(NC(=O)C(Cc2ccc(OC)c(OC)c2)NC(C)=O)CC1 (centres undefined)	2%	.	1%	0%	.	.	.	-7%
42	CCOC(=O)c1ccc(NC(=O)N2CCN(Cc3ccccc3)CC2)cc1	-1%	-22%[46.1 µM]	-10%	-3%	.	.	?	11%
43	CCCn1ncc(CN2CCC(N3CCC(C(=O)N4CCOCC4)CC3)CC2)c1C	-1%	-19%	-12%	3%	.	.	3%	4%
44	O=C(O)C1C(c2ccccc2)C(C(=O)OCCCO)C1c1ccccc1 (centres undefined)	3%	-6%	18%	1%	4.0%	-5%	20%	4%
45	COc1cc(CC(=O)OCC(=O)N2CC(=O)Nc3ccccc32)cc(OC)c1OC	-7%	7%	4%	4%	.	.	5%[46.1 µM]	16%
46	O=C(NCc1cccs1)c1cnc2ccccn2c1=O	6%	15%	0%	-7%	-4.5%	0%	23%	-2%
47	O=C(NNc1nc(-c2ccc(Cl)cc2)cs1)c1ccco1	-30%	?	11%	3.2µM*	-8.4%	-16%	?	217%
48	COc1ccc(CCN2C(=O)/C(=C\c3ccco3)SC2=S)cc1OC	3%	2%	?	.	.	.	-3%	-21%
49	CCOC(=O)c1c(C)oc2ncnc(Nc3cc(Cl)ccc3OC)c12	.	?	-1%	.	-1.7%	-11%	.	.

Reformatted: entries from further up
Fields – SARS PLP yeast | Lassa entry inh | StopGo reporter | NS1 function inh | Cruzain inh Det | Cruzain noTriton | MARV entry inh | RE007 growth inh
4: CCOc1c(Cl)cnn(-c2ccc(C)cc2)c1=O
→ 9% | 12% | 9% | 1% | -2.6% | -3% | 9% | -4%
5: CCN(CC)S(=O)(=O)c1ccc2c(c1)N(CC(=O)NCc1ccccc1)C(=O)CS2
→ . | . | 2% | . | -0.6% | 2% | 0%[46.1 µM] | .
6: CCOC(=O)N1CCN(C(=O)C(=O)Nc2sc3c(c2C(=O)O)CC(C)(C)OC3)CC1
→ -7% | . | 18% | 20% | . | . | . | 0%
7: Cc1nn(CC(N)=O)c(=O)c2ccccc12
→ -4% | -3% | -11% | -5% | 1.1% | -4% | 13% | 12%
8: Cc1nn(C(C)C(=O)NCC2CCCO2)c(=O)c2c1sc1ccccc12 (centres undefined)
→ -2% | -1%[46.1 µM] | -10% | 3% | . | . | -4%[46.1 µM] | 5%
9: O=C(/C=C/c1ccccc1)OCC(=O)c1ccc[nH]1
→ -1% | 21% | 26% | . | . | . | ? | -11%
10: CN(C)S(=O)(=O)c1ccc(C(=O)NCc2nnc(SCC(=O)c3ccccc3)o2)cc1
→ 0% | 23% | -25% | -3% | . | . | 11% | -5%
11: Cc1c(C(=O)NCCc2ccc(Cl)cc2)cccc1-n1cnc2cccnc21
→ . | 3%[46.1 µM] | ? | . | -3.6% | 0% | . | .
12: Cc1nc(Cl)sc1C(=O)Nc1cc(F)cc(F)c1
→ -14% | ? | -18% | -24% | . | . | ? | 3%

Bioassay records deposited in PubChem by National Center for Advancing Translational Sciences (NCATS).
